VDR inhibitor – inhibitors of human vitamin D receptor | P11473 | VDR-SRC2-3 peptide fluorescence polarization, 2 h | Potency, µM, for the others: max response, negative = inhibition, hits mostly inhibitors | 0.93% of 400,000 active | AID 504847; active = well fitted inhibition curve with a large enough effect; inconclusive = small, poorly fitted or top-dose-only effect, or another doubt; inactive = no such curve, though single readings can be large or run the other way; also: series mostly up to about 120 µM
Target sequence (P11473 whole entry, looked up): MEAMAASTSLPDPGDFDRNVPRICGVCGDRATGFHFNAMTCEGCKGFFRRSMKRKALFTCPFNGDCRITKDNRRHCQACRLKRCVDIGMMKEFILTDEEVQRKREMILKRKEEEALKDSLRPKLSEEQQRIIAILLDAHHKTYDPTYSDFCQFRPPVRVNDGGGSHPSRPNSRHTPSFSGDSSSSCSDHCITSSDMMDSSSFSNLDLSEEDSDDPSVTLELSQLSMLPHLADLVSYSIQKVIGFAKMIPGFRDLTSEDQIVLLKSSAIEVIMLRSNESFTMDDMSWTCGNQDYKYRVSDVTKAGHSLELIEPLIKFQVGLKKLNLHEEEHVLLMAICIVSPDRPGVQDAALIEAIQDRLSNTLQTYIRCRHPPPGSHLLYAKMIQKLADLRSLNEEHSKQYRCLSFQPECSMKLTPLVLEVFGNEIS
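Two reagent solutions held at 4 deg C in the dark were dispensed, compounds pinned at 23 nl, and the mixture incubated 2 h at room temperature. Read-out: fluorescence polarization of VDR–SRC2-3 peptide binding.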
* marks the source's active call; other numbers are inactive results; ? = inconclusive; & = joins results of further samples. % is scaled to controls: 0 for no effect and ±100 for the full control effect; potency is read from the fitted curve at half-maximal effect. Not all compounds are listed. The share of hits here may be higher or lower than overall.

SMILES | VDR inhibitor
O=C(COc1cccnc1[N+](=O)[O-])NCCc1ccc(Cl)cc1 | -5%
COc1ccc(C(=O)N2CCCC(CCC(=O)NCc3ccccc3F)C2)c(OC)n1 (configuration not stated) | 1%
CCN(C(=O)CCc1nc(-c2ccc(OC)cc2)no1)c1cc(OC)ccc1OC | 4%
Cc1c(C(O)CN2CCN(Cc3ccc4c(c3)OCO4)CC2)c2ccccc2n1C (configuration not stated) | -19%
COc1cc(-c2nc(S(=O)(=O)c3ccc(Cl)cc3)c(N3CCOCC3)o2)cc(OC)c1OC | -17%
COC(=O)C1=C(C)N(CC2CC2)C(=O)N[C@H]1c1ccccc1 | -4%
CCOC(=O)c1ccccc1NC(=O)COC(=O)c1ccc(OCC(=O)N2CCOCC2)c(OCC)c1 | -12%
CC1CCN(S(=O)(=O)c2nnc(NC(=O)COc3ccccc3)s2)CC1 | -6%
Cc1ccc(CCN2CC(C(=O)NCCCN3CCOCC3)CC2=O)cc1 (configuration not stated) | 10%
COc1ccc(Cl)cc1NC(=O)Cn1c2ncccc2c(=O)n1-c1ccc(C)c(C)c1 | -3%
COc1ccc(-c2[nH]c(-c3ccccc3)nc2SCC(=O)NCc2ccco2)cc1OC | 10%
COc1ccc(S(=O)(=O)N2c3ccccc3OCC2C)cc1 (configuration not stated) | 9%
CC1CCN(c2c(NCC3CCC(C(=O)NCCc4ccc(Cl)cc4)CC3)c(=O)c2=O)CC1 (configuration not stated) | -5%
O=C(c1ccc(Cl)c(S(=O)(=O)N2CCCCC2)c1)N1CCN(c2ccccc2)CC1 | -4%
O=C(NNS(=O)(=O)c1ccc(F)cc1)c1sccc1-n1cccc1 | 16%
COCC(=O)N(C)c1nnc(-c2ccc([N+](=O)[O-])cc2)s1 | -3%
Cc1ccccc1NC(=O)COC(=O)c1ccc(S(C)(=O)=O)c([N+](=O)[O-])c1 | -9%&-6%
CCOc1ccccc1C(=O)N1CCC(n2nnc3cc(C)ccc32)CC1 | -20%
COc1ccc(S(=O)(=O)NCCCc2ccccc2)cc1 | -21%
CC(Oc1cccc(Cl)c1)C(=O)NCc1ccc(S(N)(=O)=O)cc1 (configuration not stated) | ?
Cc1cc(/C=C2\NC(=S)N(C)C2=O)ccc1N1CCCC1 | -19%
C[C@@H]([C@@H](O)c1ccccc1)N(C)C(=O)C(N)Cc1ccccc1 (some centres not stated) | -10%
O=C(NCc1ccc(Cl)cc1)C1CCCN(S(=O)(=O)c2cnc[nH]2)C1 (configuration not stated) | 3%
O=C(OCc1cccc([N+](=O)[O-])c1)c1cnccn1 | -10%
CCS(=O)(=O)c1ncc(Cl)c(C(=O)N2CCN(c3ccc(OC)cc3)CC2)n1 | ?

Remaining list, next part.
SMILES | VDR inhibitor
Cc1ncoc1C(=O)N1CCc2c([nH]c3ccccc23)C1C(C)(C)C (configuration not stated) | 5%
CCNC(=S)N1CCN(S(=O)(=O)c2ccc(Cl)s2)CC1 | -1%
Cc1noc(C)c1S(=O)(=O)N(C)C[C@H]1Oc2c(NC(=O)NC(C)C)cccc2C(=O)N([C@H](C)CO)C[C@@H]1C | -11%
O=C(CCNC(=O)c1ccc([N+](=O)[O-])cc1)Nc1cc(Cl)ccc1N1CCOCC1 | 18%
CC(=O)N1CCN(Cc2nc3cc(NC(=O)c4ccccc4Cl)ccc3n2C)CC1 | -4%
Cc1ccc(OCC(=O)N(c2ccc(C)cc2)S(=O)(=O)c2ccc(Cl)cc2)cc1 | -11%
CC1(c2ccc(Cl)cc2)NC(=O)N(CC(=O)N2CCc3ccccc32)C1=O (configuration not stated) | -12%
O=C(Cn1ccn(-c2ccc(F)cc2)c(=O)c1=O)Nc1ccccc1C(F)(F)F | 1%
COc1ccc(CCNC(=O)C2CCN(Cc3nc(-c4ccc(OC)c(OC)c4)oc3C)CC2)cc1OC | -14%
COc1ccc(N2Cc3cccc(C(=O)O)c3C2=O)cc1 | 8%&-2%
CN(C)CCNC(=O)c1ccc(Cl)s1 | -1%
OCC1CCCN(C(=S)NCCc2ccccc2)C1 (configuration not stated) | -22%
COc1c(C)cc(Br)cc1C(=O)Nc1ccccc1C | -18%
O=C(NNC(=O)c1ccccc1O)c1ccc(Cl)c(S(=O)(=O)N2CCc3ccccc32)c1 | -6%
CCCc1nc2c(sc3nc4c(cc32)COC(C)(C)C4)c(=O)o1 | -7%
COc1cccc(Cn2c(=O)c(-c3cn(C)c4ccccc34)nc3cnc(OC)nc32)c1 | -8%
Cc1c(C(=O)N2CCCC2)c(S(=O)(=O)NCCc2ccccc2)c(C)n1C | -11%
COC[C@@H](O)[C@@H](OC)[C@H](OC)[C@H](Cc1c(OC)cc(OC)cc1OC)OC | -1%
CC(C)c1ccc(S(=O)(=O)N2CCC(N3CCN(Cc4ccccc4)C(=O)C3=O)CC2)cc1 | -8%
CCN(c1ccccc1)S(=O)(=O)c1nnc(NC(=O)C(C)C)s1 | -13%
CCC(=O)N1CCc2cc(S(=O)(=O)NC(C(=O)NCc3ccc(C)cc3)C(C)C)ccc21 (configuration not stated) | -2%
Cc1cccc(OCC(=O)NNS(=O)(=O)c2ccccc2F)c1 | 9%
O=c1ccc(S(=O)(=O)N2CCCC2)cn1Cc1nc(-c2ccccc2)no1 | 2%
COC(=O)C1CC(c2c(OC)cc(OC)cc2OC)=NO1 (configuration not stated) | 18%
Cc1cc[n+](CC[n+]2ccc(C)cc2)cc1 | -8%

Molecules shown so far that contain fluorine (4):
SMILES | VDR inhibitor
COc1ccc(C(=O)N2CCCC(CCC(=O)NCc3ccccc3F)C2)c(OC)n1 (configuration not stated) | 1%
O=C(NNS(=O)(=O)c1ccc(F)cc1)c1sccc1-n1cccc1 | 16%
O=C(Cn1ccn(-c2ccc(F)cc2)c(=O)c1=O)Nc1ccccc1C(F)(F)F | 1%
Cc1cccc(OCC(=O)NNS(=O)(=O)c2ccccc2F)c1 | 9%

Next section.
SMILES | VDR inhibitor
Cc1cc(C)c(C(=O)OCC(=O)NCc2cccs2)c(C)c1 | -4%
CC(=O)Nc1ccc(C(F)(F)F)cc1Cl | -5%
Cc1ccc(CNC(=O)Cn2c(=O)ccc3cc(S(=O)(=O)N4CCC(C)CC4)ccc32)cc1 | 3%
CCN(CC)CCn1c2c(c(SCC(=O)Nc3nccs3)nc1=O)CCCC2 | -15%
N#CCCN(C(=O)COC(=O)CCNS(=O)(=O)c1ccccc1)c1ccccc1 | -6%
Cn1c(CCNC(=O)c2ccc(Cl)c(Cl)c2)nnc1SCc1ccc(Cl)c(Cl)c1 | -2%
CC1CCC(C(C)C)C(OC(=O)Cn2c(-c3ccccc3)[n+](C)c3ccccc32)C1 (configuration not stated) | -11%&-6%
CCCc1ccc(C(C)NC(=S)NC2CCCCC2)cc1 (configuration not stated) | 16%
CCCCNc1c(-c2cccc(Sc3ccc(OC)cc3)c2)nc2ccccn12 | -24%
CC1(C)C(=O)Nc2ccccc2N1C(=O)COC(=O)c1cc([N+](=O)[O-])ccc1N | -16%
Cc1ccc2c(CSc3nnc(N)s3)cc(=O)oc2c1 | -26%
Cc1ccc(-c2nnn(CC(=O)N(CC3CCCO3)C(C(=O)NCC3CCCO3)c3ccc(F)cc3)n2)o1 (configuration not stated) | 6%
CCOc1cccc(/C=C/c2ccc3cccc(O)c3n2)c1OC | 12%
CCOC(=O)N1CCN(C(=O)C2CCN(C(=O)c3cc4sccc4n3CC)CC2)CC1 | 4%
COc1cc2c(=O)c(C(=O)c3ccc(C)c(C)c3)cn(Cc3ccc(F)cc3)c2cc1OC | -10%
O=[N+]([O-])c1cc2oc3c(c2c(C=NCc2ccccc2)c1O)CCCC3 | -6%
CC(C)(C)N=C1NC(=NC(C)(C)C)c2ccccc21 | 4%
COc1cnc(-c2ccccn2)nc1Oc1ccc(F)cc1F | 7%
Cc1c(Cl)cccc1NC(=O)Cn1nnc2sc3c(c2c1=O)CCCC3 | -15%
COc1ccc2cc(OCC(=O)NNC(=O)Nc3ccc(C(C)=O)cc3)ccc2c1 | 8%
CC1CCN(C(=O)CSc2nc(N)c(NC(=O)c3ccccc3)c(=O)[nH]2)CC1 | -13%
CC(C)c1ccc(N=c2c([N+](=O)[O-])nn(-c3ccc4c(c3)OCCO4)n2O)cc1 | 5%
CCN(CC)S(=O)(=O)c1cc(NC(=O)c2cc(-c3ccccn3)nc3ccccc23)ccc1C | -12%
Cc1cc(Nc2ccc(C(=O)N3CCCCC3)cc2)c2cccc(C)c2n1 | -1%
COc1ccc(NC(=O)c2ccccc2)c([N+](=O)[O-])c1 | -6%

Sorted by count of non-hydrogen atoms (low to high): part of the list above
SMILES | VDR inhibitor
O=[N+]([O-])c1cc2oc3c(c2c(C=NCc2ccccc2)c1O)CCCC3 | -6%
Cn1c(CCNC(=O)c2ccc(Cl)c(Cl)c2)nnc1SCc1ccc(Cl)c(Cl)c1 | -2%
CCOC(=O)N1CCN(C(=O)C2CCN(C(=O)c3cc4sccc4n3CC)CC2)CC1 | 4%

Random excerpt: 2 compounds from above, in no set order.
SMILES | VDR inhibitor
COc1ccc(NC(=O)c2ccccc2)c([N+](=O)[O-])c1 | -6%
O=[N+]([O-])c1cc2oc3c(c2c(C=NCc2ccccc2)c1O)CCCC3 | -6%

Next part
SMILES | VDR inhibitor
COC(C[C@H](O)C[C@H](O)[C@@H](C)OCc1ccccc1)OC | -6%
CCCn1c(N)c(N(CCOC)C(=O)c2cc(Cl)nc3ccccc23)c(=O)[nH]c1=O | -7%
O=C(CCc1nnc2ccc(NCc3ccco3)nn12)Nc1cccc(F)c1 | -8%
CCOC(=O)c1ccccc1NC(=O)CN(c1cccc(C)c1C)S(=O)(=O)c1ccccc1 | -1%
O=C1CS(=O)(=O)C2(C(=O)Nc3ccccc32)N1c1cccc(Cl)c1 (configuration not stated) | 6%
COC(=O)c1sccc1NC(=O)c1sccc1C | 6%
O=C(CN1CCN(C2CCCCC2)CC1)NCCC1=CCCCC1 | 6%
Cn1c(N)c(C(=O)COC(=O)/C=C/c2cccc(C(F)(F)F)c2)c(=O)n(C)c1=O | 9%
CCOC(=O)c1ccc(NC(=O)c2cccc3c2C(=O)N(CC2CCCO2)C3)cc1 (configuration not stated) | -14%
Cc1nn(Cc2ccccc2)c2sc(C(=O)N3CCN(Cc4ccc5c(c4)OCO5)CC3)cc12 | 8%
CC(=O)O[C@H]1[C@@H](O)[C@H](O)[C@H](Oc2c(O)c(C)c3c4c2[C@@H](C)CC[C@@H]4[C@@H](C)C[C@H]3C=C(C)C)O[C@H]1C | 0%
COc1cccc(NC(=O)c2c(N3CCCC3=O)c3cc(C)ccc3n2C)c1 | 9%
CC(C)COc1ccc(C(=O)NC(Cc2c[nH]c3ccccc23)C(=O)NN)cc1 (configuration not stated) | -24%
Cc1ccc(S(=O)(=O)N2CCN(Cc3ccccn3)CC2)cc1 | -2%
COc1ccc(C(=O)N2CCOC23CCN(c2ncccn2)CC3)cc1 | -10%
CN(Cc1cn[nH]c1-c1cc2ccccc2o1)CC1CCOCC1 | -13%
Cn1ccsc1=NC(=O)c1ccccc1F | -1%
C=CCNC(=O)c1ccc(-c2nc(-c3ccc(Cl)c(Cl)c3)cs2)cc1 | -1%
O=C(COC(=O)CCc1nc2ccccc2s1)Nc1cccc(S(=O)(=O)N2CCOCC2)c1 | 20%
Cc1cccc(C)c1OCCCN1CCOCC1 | -21%
COc1ccc2nc3sc(C(=O)NCCN4CCc5ccccc5C4)cc3cc2c1 | 5%
NCC(=O)Nc1ccc(Cl)cc1C(=O)c1ccc[nH]1 | -11%
O=C(CSc1nnc(NC(=O)c2cccc(F)c2)s1)NCC1CCCO1 (configuration not stated) | -11%
CSc1cccc(NC(=O)N2CCCC(CNS(=O)(=O)Cc3ccccc3)C2)c1 (configuration not stated) | 1%
CN(C)C(=O)CN1C(=O)C2CC=C(Cl)CC2C1=O (configuration not stated) | -3%

(further entries)
SMILES | VDR inhibitor
COc1cccc(NC2=C(C#N)C(=O)NC(c3cccc(OC)c3O)S2)c1 (configuration not stated) | ?
C=Cn1c(C(=O)O)ccc1-c1ccc(OC)cc1 | 4%
C=CCN1C(=O)/C(=C2/Sc3ccccc3N2C)SC1=Nc1ccccc1C | -4%
COc1cccc(NS(=O)(=O)c2ccc(-c3cc(C)no3)s2)c1 | 6%
CC1CCN(C(=O)C(=O)c2cn(CC(=O)N3CCCCCC3)c3ccccc23)CC1 | 6%
Cc1ccc(C(=O)O/N=C(\N)Cc2cccc3ccccc23)cc1 | 0%
CCO[C@H]1OC(C(N)=O)=C[C@@H](c2ccc(Br)cc2)[C@@H]1CCCO | 11%
Cc1ccc(-c2nn(CCC(=O)O)cc2CCC(=O)O)cc1 | -8%
O=c1[nH]c(-c2cccnc2)nc2ccccc12 | -14%
CCOC(=O)C(C#N)(Cc1cc(OC)cc(OC)c1)Cc1cc(OC)cc(OC)c1 | 10%
COc1ccc(OC)c(-n2cnc3cc(C(=O)NC4CCCC4)ccc32)c1 | 8%
Cc1ccc(S(=O)(=O)N2CCOCC2)cc1NC(=O)CSc1nc(N)cc(N)n1 | -11%
Clc1cc(Cl)c2nc(N3CCCC3)sc2c1 | -2%
Cc1cc(OCc2nc(-c3ccc(NC(=O)c4cccnc4)cc3)no2)ccc1Cl | 8%
CNC(=O)C1CC(=O)N(CCc2ccccc2)C(=Nc2ccc(OC)cc2)S1 (configuration not stated) | 26%
CN(C)c1c(N)[nH]c2c(c1=O)c(=O)n(C)c(=O)n2C | 2%
Cn1ncc(N=Cc2ccccc2[N+](=O)[O-])c1C(N)=O | -10%
Cc1ccc(S(=O)(=O)NCCCCCC(N)=O)cc1 | 14%
